Bioassay records from PubChem BioAssay.
StopGo FLuc = FMDV 2A StopGo reporter, firefly signal. AID 1745856. Potency, µM (series often up to 57.5 µM), without a hit: at the top dose signal change, negative = less light. hit rate 0.23% among 120,000. HEK cells with a luciferase reporter of 2A StopGo recoding; active = well fitted falling curve with a large enough effect; inconclusive = small, poorly fitted or top-dose-only effect; inactive = no such curve, though single readings can be large or run the other way; note: nearly all actives have a fitted effect of over 60% in size; overnight with compound
StopGo RLuc = lowers the Renilla signal of an FMDV 2A StopGo reporter; HEK cells with a luciferase reporter of 2A StopGo recoding; Potency, µM (series often up to 57.5 µM), for the others: at the highest dose signal change, negative = less light; hit rate 0.32% among 120,000; AID 1745857; active means well fitted falling curve with a large enough effect; inconclusive means small, poorly fitted or top-dose-only effect; inactive means no such curve, though single readings can be large or run the other way; note: nearly all actives have a fitted effect of over 55% in size; overnight with compound
* hit, by the source's call; ? = inconclusive; & = joins results of further samples; [ ] = another dose, or the depositor's remark. % is set by controls: 0 for no effect and ±100 for the full control effect; potency is the fitted concentration of half-maximal effect. An excerpt; the hit share may differ from the screen's.

Each structure is followed by: StopGo FLuc, StopGo RLuc
[1] CC(=O)N1CCc2c(sc3c2c(=O)n(-c2ccccc2C)c(=O)n3CC(=O)Nc2ccccc2)C1
  0%, 33%[activator]
[2] CCCC(=O)O[C@]1(C(=O)CO)CC[C@H]2[C@@H]3CCC4=CC(=O)CC[C@]4(C)[C@H]3[C@@H](O)C[C@@]21C
  9%, 17%
[3] O=C(COC(=O)c1cc(=O)c2ccccc2o1)NCC1CCCCC1
  10%, 8%
[4] NC(=O)c1ccc(NC(=O)c2nccnc2N)cc1
  0%, -8%[1.06 µM]
[5] COc1ccc(C(=O)Nc2ccc3nc(N4CCCC4)sc3c2)cc1OC
  56%[activator], 8%
[6] CCOc1ccc(CCNC(=O)c2ccc(CSCc3ccccc3C)o2)cc1OCC
  ?, ?
[7] COc1ccc(N(Cc2nnc(-c3ccc(Cl)cc3)o2)S(=O)(=O)c2ccc(C(C)=O)cc2)cc1
  32%[activator], 25%
[8] CCCC(C)NC(=O)C(NC(=O)c1ccc(C(C)(C)C)cc1)C(C)C (stereo not given)
  -8%, -15%
[9] COc1ccc(CC(C#N)C(=O)Nc2cccc(C)c2C)cc1 (stereo not given)
  1%, 78%[activator]
[10] CSc1ccccc1NC(=O)C(C)N(C)CC(=O)Nc1ccc(F)cc1 (stereo not given)
  -19%, -16%
[11] CCCS(=O)(=O)NCc1ccc(C(=O)O)cc1
  24%, -1%[1.06 µM]
[12] CC1CCc2c(sc(NC(=O)c3ccccc3OC(F)F)c2C(N)=O)C1 (stereo not given)
  75%[activator], 5%
[13] CCOc1ccc(Oc2ccccc2NC(=O)c2ccoc2)cc1
  32%[activator], 26%
[14] CC(=O)Nc1ccc(SC(C)C(=O)c2ccc3c(c2)CCC3)cc1 (stereo not given)
  105%[activator], -22%[1.06 µM]
[15] COc1ccccc1C(=O)Nc1cc2c(cc1N1CCOCC1)n(C)c(=O)n2C
  9%, 20%
[16] COc1cccc(OCc2nc3ccccc3n2C)c1
  151%[activator], -8%
[17] Cc1cc(=O)c2cc(C(=O)Nc3ccccc3C)ccc2[nH]1
  -14%, -16%
[18] CNc1c(NC(=O)c2cccc(OC)c2)c(=O)oc2ccccc12
  0%, 3%
[19] COc1ccc(CC(=O)NC(c2cccs2)C(C)C)cc1 (stereo not given)
  -6%, -7%
[20] Cc1oc(-c2cccc(Cl)c2)nc1CSc1nc2ncccc2[nH]1
  -9%&-18%, -7%&-7%
[21] COc1ccccc1CNC(=O)Cc1c[nH]c2ccccc12
  79%[activator], 11%
[22] Clc1ccc(C(c2ccccc2Cl)C(Cl)Cl)cc1 (stereo not given)
  -2%[11.5 µM], 3%
[23] O=C(NCCN1CCc2ccccc2C1)c1ccc(Cl)cc1
  -4%, -13%
[24] Cc1cccc(N(C)S(=O)(=O)c2nnc(NC(=O)C(C)Oc3ccccc3)s2)c1 (stereo not given)
  -6%, -8%
[25] O=C(OCc1ccccc1[N+](=O)[O-])c1cnc2ccccc2c1C(F)(F)F
  -4%, 97%[activator]
[26] CCSc1ncc(Cl)c(C(=O)Nc2nnc(C)s2)n1
  24%, 17%
[27] CCCCNc1nc(Oc2ccc(OCCC)nn2)nc(N(C)C)n1
  18%, 71%[activator]
[28] COc1ccc(Nc2nc3ccccc3nc2NS(=O)(=O)c2cccs2)cc1Cl
  0%, 14%
[29] CCCC1CCCN(C(=O)Cc2nn(C)c(=O)c3ccccc23)CC1 (stereo not given)
  ?, ?
[30] Cc1ccc(NC(=O)N2CCC(N3CCN(Cc4ccccc4)C(=O)C3=O)CC2)cc1Cl
  5%, -10%
[31] COC(=O)c1cc(NC(=O)c2nc3ccccc3nc2N2CCCCC2)cc(C(=O)OC)c1
  3%, -4%
[32] CCOC(=O)c1ccc(N2C(=O)c3n[nH]c(-c4ccco4)c3C2c2cccnc2)cc1 (stereo not given)
  -18%, 22%
[33] Cc1ccc(NC(=O)CCc2c(C)nn(-c3ccc(N4CCOCC4)nn3)c2C)cc1F
  158%[activator], -9%
[34] Cc1ccc2oc(C(=O)NCc3ccc4c(c3)OCO4)cc(=O)c2c1
  -4%, -4%
[35] COc1ccc(OC)c(C2CCCN2Cc2nc(-c3ccccc3C)no2)c1 (stereo not given)
  15%, 19%
[36] CCc1ccccc1NS(=O)(=O)c1ccc2c(c1)CCN2C(=O)C1CC1
  -8%, 4%
[37] Cc1ccc(CNC(=O)CC2Oc3ccccc3NC2=O)cc1 (stereo not given)
  -15%, -12%
[38] COc1ccc(Cc2nc3ccc(C(=O)NCc4ccccc4C)cc3o2)cc1
  0%, 10%
[39] COc1ccccc1NS(=O)(=O)c1cc2c(cc1Cl)NC(=O)CO2
  -7%, 38%[activator]
[40] COc1cccc(Cn2c(C)c(CNCc3cccc(C)c3)c(C(=O)O)c2C)c1
  -5%, 36%[activator]
[41] Cc1ccccc1NC(=O)CCC1CCCC1
  107%[activator], 24%
[42] CCC(=O)N1CCCc2cc(S(=O)(=O)N3CCC(C(=O)NCc4ccc(F)cc4)CC3)ccc21
  -6%, -4%
[43] Cc1ccc2cc(C(=O)N3CCCC(CNS(C)(=O)=O)C3)[nH]c2c1 (stereo not given)
  107%[activator], 10%
[44] CONC(=O)COc1ccc(Nc2ccccc2)cc1
  14%, 2%
[45] CN(C)c1ccc(/C=C/c2noc(-c3ccccc3O)n2)cc1
  60%[activator], 8%
[46] CN(C1CCCCC1)S(=O)(=O)c1ccc2c(c1)c(=O)n(CC(=O)N1CCCCCC1)c(=O)n2C
  -2%, 31%[activator]
[47] Cn1c(=O)c2c(nc(SCC(=O)Nc3ccccc3F)n2Cc2ccccc2)n(C)c1=O
  9%, -5%
[48] O=C(CSc1nnc(-c2ccccc2F)o1)Nc1ccccc1Cl
  192%[activator], 17%
[49] CN1CCN(C(=O)Cn2c(-c3cccs3)cc3cc(Cl)ccc32)CC1
  -5%, -22%
[50] O=C(NC1CCCC1)c1cc2c(Cl)nc3ccccc3c2s1
  -8%, 3%
[51] CCOC(=O)c1c(S(=O)(=O)NCC(=O)NCc2ccccc2)c(C)n(C)c1C
  -11%, 43%[activator]
[52] COc1ccc(-c2nnc(SCC(=O)Oc3c(C)cccc3C)o2)cc1OC
  -22%, -1%
[53] CCCCNC(=O)C1CCC(Cn2c(=O)c3sccc3n(CC(=O)N3CCCC3)c2=O)CC1 (stereo not given)
  1%, 5%
[54] CCc1cc2c(CN3CCN(CC)CC3)cc(=O)oc2cc1O
  0%, 12%
[55] O=C(Cn1nc(-c2ccc(Cl)cc2)c2ccccc2c1=O)Nc1ccc2ccccc2c1
  -7%, -11%
[56] CCCOc1cccc(C2c3c(oc4ccc(F)cc4c3=O)C(=O)N2Cc2ccc3c(c2)OCO3)c1 (stereo not given)
  0%, 94%[activator]
[57] CN(C)CCOC(c1ccccc1)c1ccccc1
  -21%[11.5 µM], -10%
[58] CCNC(=O)NC(=O)CN(Cc1ccc(C)cc1)C1CC1
  9%, 13%
[59] CCn1c(=O)c(-c2noc(C(=O)N3CCCCC3)n2)nn(-c2ccc(C)cc2)c1=O
  51%, 29%
[60] CCOc1ccc(C(=O)c2cn(Cc3ccc(F)cc3)c3ccc(F)cc3c2=O)cc1
  -8%, 51%[activator]

A draw from above in order of number of heavy atoms, largest number first:
Each structure is followed by: StopGo FLuc, StopGo RLuc
[1] CC(=O)N1CCc2c(sc3c2c(=O)n(-c2ccccc2C)c(=O)n3CC(=O)Nc2ccccc2)C1
  0%, 33%[activator]
[55] O=C(Cn1nc(-c2ccc(Cl)cc2)c2ccccc2c1=O)Nc1ccc2ccccc2c1
  -7%, -11%
[59] CCn1c(=O)c(-c2noc(C(=O)N3CCCCC3)n2)nn(-c2ccc(C)cc2)c1=O
  51%, 29%
[25] O=C(OCc1ccccc1[N+](=O)[O-])c1cnc2ccccc2c1C(F)(F)F
  -4%, 97%[activator]
[12] CC1CCc2c(sc(NC(=O)c3ccccc3OC(F)F)c2C(N)=O)C1 (stereo not given)
  75%[activator], 5%
[3] O=C(COC(=O)c1cc(=O)c2ccccc2o1)NCC1CCCCC1
  10%, 8%

Later entries.
Each structure is followed by: StopGo FLuc, StopGo RLuc
[61] COCCCNC(=O)c1c(C)nn(-c2ccc(F)cc2)c1-n1cccc1
  7%, 2%
[62] COc1ccc(-c2noc(CN(C(C)C)S(=O)(=O)c3ccc(Br)cc3)n2)cc1
  -3%, -3%
[63] CCSc1nnc2c(n1)OC(c1cc(OC)c(OC)c(OC)c1)Nc1ccccc1-2 (stereo not given)
  48%[activator], -8%
[64] CCc1ccc(CCC(=O)N2CCCC2)cc1
  98%[activator], 5%
[65] Cc1cccc(C)c1NC(=O)Cn1nc(C)c2sc3ccccc3c2c1=O
  10%, -7%
[66] CC(C)c1ccc(NC(=O)c2ccc3c(c2)NC(=O)CS3)cc1
  0%, 7%
[67] O=C(NCc1ccccc1)c1ccc(C(F)(F)F)cc1
  32%[activator], 16%
[68] COc1ccc(CNC(=O)CCc2ccc3nc(NC(=O)C(C)C)sc3c2)cc1
  181%[activator], 81%[activator]
[69] Nc1cccc(-c2cn3ccsc3n2)c1
  0%, 9%
[70] CCOc1ccccc1NC(=O)Cn1c(C)cc(=O)n2nc(-c3cccs3)nc12
  3%, -4%
[71] COc1cccc(NC(=O)C2CCC(CNS(=O)(=O)c3csc(C(N)=O)c3)CC2)c1 (stereo not given)
  -12%, 21%
[72] Cc1ccccc1Nc1sc(C(=O)c2ccc3c(c2)OCO3)c(N)c1S(=O)(=O)c1ccccc1
  18%, 74%[activator]
[73] CSc1nc2sc3c(c2c(=O)n1Cc1ccccc1)CCC(C(C)(C)C)C3 (stereo not given)
  -18%, -6%
[74] C=CCNC(=O)NCC(=O)Nc1ccc(F)c(F)c1F
  8%, -14%[1.06 µM]
[75] Cc1ccc(CNC(=O)CCS(=O)(=O)c2cc3c(cc2C)NC(=O)CO3)cc1
  -3%, 2%
[76] COc1ccc(OC)c(CNC(=O)c2nn(-c3ccc(OC)c(Cl)c3)c(=O)c3c2c2ccccc2n3C)c1
  -14%, -12%
[77] CCCCCCCCS(=O)(=O)CCCCC(=O)O
  20%, 13%
[78] O=C(NCc1nc(-c2cccs2)no1)c1ccc2c(c1)OCO2
  0%, -9%
[79] CCc1c(C(=O)c2ccc[nH]2)oc2ccc(Cl)cc12
  8%, -12%
[80] COc1ccc(C(CC(=O)NCc2ccccc2)N2Cc3ccccc3C2=O)cc1 (stereo not given)
  9%, 120%[activator]
[81] COc1ccc(CNC(=O)CCc2ncc(-c3ccccc3)o2)cc1OC
  18%, -5%
[82] CC(=O)c1cccc(NC(=O)c2c(-c3ccccc3)c(-c3ccccc3)nn(C)c2=O)c1
  -18%, 40%[activator]
[83] CC(NC(=O)Cn1ncc2c3ccccc3n(Cc3ccc(F)cc3)c2c1=O)c1ccccc1 (stereo not given)
  -2%, 2%
[84] COC(=O)c1ccoc1COC(=O)c1ccc2c(c1)CCCC2
  79%[activator], 5%
[85] COc1ccc(-n2cnc3cc(C(=O)NC4CCCC4)ccc32)cc1
  17%, 101%[activator]
[86] C#CCNC(=O)CN(Cc1cccs1)C1CC1
  1%, 11%
[87] CCCCNC(=O)CSc1nc2cc3c(cc2c(=O)n1CCCCCC(=O)NCc1ccc(OC)cc1)OCO3
  -13%, -3%
[88] N#Cc1ccccc1N=Cc1ccc(F)cc1
  -1%, -5%
[89] O=S(Cc1ccccc1)Cc1ccc(Cl)cc1Cl (stereo not given)
  12%, 41%[activator]
[90] CSc1ccccc1C(=O)Nc1cc(Cl)cc(Cl)c1
  ?, 3%
[91] Oc1c(C2CCCCC2)cccc1C1CCCCC1
  0%, 17%
[92] O=c1oc2ccccc2cc1-c1cn2cc(Cc3ccc(Cl)cc3)sc2n1
  52%[activator], 11%
[93] CCOC(=O)C1CCN(C(=O)c2cnn(-c3ccc(C)cc3)c2-n2cccc2)CC1
  9%, 38%[activator]
[94] CCCCCCOC(=O)C(C#N)c1nc2ccccc2nc1N1CCN(CC)CC1 (stereo not given)
  -16%, -14%
[95] Cc1ccccc1NC(=O)Cn1nnc(C(=O)NCc2cccs2)c1N
  100%[activator], 56%[activator]
[96] O=C(Nc1cccc(Cl)c1)Nc1ncc(Cl)cc1Cl
  -1%, -9%
[97] COC(=O)C1=C(C(=O)c2ccc(C)cc2)C(c2ccc(C(=O)OC)cc2)n2nnnc2N1 (stereo not given)
  10%, 22%
[98] N#Cc1c(C2CC2)cc(C(F)(F)F)[nH]c1=O
  10%, -2%[1.06 µM]
[99] CCc1ccc(OCC(O)Cn2c(NCCc3ccccc3)nc3c2c(=O)[nH]c(=O)n3C)cc1 (stereo not given)
  -17%, -9%
[100] FC(F)(F)c1cccc(-n2nnnc2C2(Nc3ccccc3)CCCCC2)c1
  5%, 340%[activator]
[101] O=C(N/N=C/c1ccccc1)C1CC1(c1ccccc1)c1ccccc1 (stereo not given)
  11%, 0%
[102] CCOC(=O)C1CCN(C(c2ccccc2)c2c(O)cc(C)n(Cc3ccccc3)c2=O)CC1 (stereo not given)
  23%, 21%
[103] CCc1nc2ccc(C(=O)NC(C)c3ccccc3)cc2nc1CC (stereo not given)
  -6%, -15%
[104] O=C(Nc1nc(-c2ccccn2)cs1)C1CC(=O)N(c2ccccc2Cl)C1 (stereo not given)
  11%, 2%
[105] CC(NC(=O)C1CCCC1)c1ccc(C(F)(F)F)cc1 (stereo not given)
  -3%, -8%
[106] CC(=O)Nc1ccc2oc(-c3cccc4c(Cl)cccc34)nc2c1
  ?, 11%
[107] COc1cccc(CNS(=O)(=O)c2ccc3c(c2)OCC(C(=O)N2CCCCC2)O3)c1 (stereo not given)
  -11%, 74%[activator]
[108] C=CCOC(=O)COc1ccc2oc(=O)cc(-c3cc4cccc(OC)c4o3)c2c1
  6%, 8%
[109] CCc1ccc(S(=O)(=O)N2CCSC2c2ccc(OC)c(Br)c2)cc1 (stereo not given)
  -19%, -18%
